High-throughput results as filed in PubChem.
HTT promoter inh: Primary qHTS for Identification of Small Molecule Inhibitors of Huntingtin Promoter Activity. HEK293 HTT promoter firefly luciferase reporter (activity 0% = vehicle and -100% = no light), 24 h. Potency, µM (series often up to 57.5 µM), without a hit: at the top dose activity change, negative = inhibition, actives largely listed as inhibitors. hit rate 0.93% among 48,000. AID 1508623, 2021; active = well fitted inhibition curve with a large enough effect; inconclusive = small, poorly fitted or top-dose-only effect; inactive = no such curve, though single readings can be large or run the other way; also: nearly all actives have a fitted effect of over 50% in size
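Luminescence was read after Dual-Glo reagent and a 10 min room-temperature incubation. Values were normalized to vehicle (0% activity) and zero RLU (-100% activity). Reporter HEK293 cells had been exposed to compounds (up to 57.5 uM final) for 24 h.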
PMP22 txn: Cell-based coincidence reporter assay to measure PMP22 gene transcription in S16 Pmp22-F2sN cells - Primary screen. S16 Pmp22-F2sN Schwann cells (luciferase reporters placed in the Pmp22 gene), FLuc/NLuc coincidence luminescence, 24 h. Potency, µM (highest dose often 57.5 µM), inactives show at the highest dose activity change, negative = inhibition, actives largely listed as inhibitors. hit rate 2% among 43,000. AID 1508649, 2021; active = clear falling dose curves in both reporters; inconclusive = both reporters move, but less clearly or upward; inactive = either reporter flat; the % is the NLuc reporter signal; also: % is scaled to controls: 0 for no effect and ±100 for the full control effect; some results filed as inactive show a strong effect at the top dose
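Luminescent read-out of sequential FLuc and NLuc signals from a reporter embedded in the Pmp22 3' UTR of S16 Schwann cells, taken after 24 h compound exposure at 37C; compounds reducing both signals score as inhibitors of expression.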
* marks the source's active call; other numbers are inactive results; u = inconclusive; x = not tested or not shown; & = joins results of further samples; [ ] = dose if it differs, or a comment. Potency is read from the fitted curve at half-maximal effect.

Start of the listing, in advance, 2 compounds:
Values in the order: PMP22 txn, HTT promoter inh
> CCCCN1CCCC[C@H]1C(=O)Nc1c(C)cccc1C
    x, -10%
> Cc1cc(NC(=O)c2ccc(Cl)c(Cl)c2)ccc1-c1cc2ccccc2oc1=O
    u, -2%

This part in full, repeating the preview:
Values in the order: PMP22 txn, HTT promoter inh
> CCCCN1CCCC[C@H]1C(=O)Nc1c(C)cccc1C
    x, -10%
> Cc1cc(NC(=O)c2ccc(Cl)c(Cl)c2)ccc1-c1cc2ccccc2oc1=O
    u, -2%
> Cc1ccc(CNC(=O)c2cccc(-n3cnc4cccnc43)c2)cc1
    -23%, -21%
> Cc1ccc(NC(=O)c2sc3nc[nH]c(=O)c3c2C)cc1C
    -29%, 85%[activator]
> Cc1cc(N2CCCCC2)nc2ccc(NC(=O)c3cccc(F)c3)cc12
    -30%, -18%
> O=C(O)Cn1c(-c2cccs2)cc2cc(Cl)ccc21
    4%, 3%
> COc1ccc(Cn2nnc3c(=O)[nH]c(C4CCN(C(=O)c5ccc(C)cc5)CC4)nc32)cc1OC
    u, -5%
> COc1ccc(CNC(=O)c2cnc(N(C)C)nc2)cc1
    -16%, -16%
> Cc1cc(C)cc(Nc2nc3c(S(=O)(=O)c4cccc(Cl)c4)nnn3c3ccsc23)c1
    -25%, -5%
> CCOC(=O)c1c(C)oc2ncnc(NCCc3ccccc3)c12
    u, -17%
> Cc1cc(NC(=O)CN(C)S(=O)(=O)c2ccc3c(c2)CCC(=O)N3)ccc1Br
    u, u
> CCOc1ccccc1NC(=O)n1ncc2cc(Cl)ccc21
    u, 25%
> COc1cccc(-c2nc3c(C#N)c[nH]n3c2NC2CCC(C)CC2)c1 (centres undefined)
    u, -2%
> COc1ccc(OCC(=O)NCc2ccc3c(c2)CCN3C(=O)c2ccc(F)cc2)cc1
    u, u
> O=C(Nc1onc2c1CCCC2)c1ccccc1
    -19%, 7%
> COc1ccccc1-c1c(C)nn2c(N3CCN(c4cccc(Cl)c4)CC3)cc(C)nc12
    8%, -13%
> CC(=O)Oc1ccccc1C(=O)O
    x, 21%&-3%
> COc1cccc2c1cc1c(=O)n(CC(=O)N3CCN(c4ccc(Cl)cc4)CC3)nc(C)n12
    1%, -3%
> COc1cccc(CNC(=O)c2ccc(-c3nc(COc4ccccc4)c(C)o3)cc2)c1
    -16%, u
> CCCn1c(-c2ccc(S(=O)(=O)N3CCOCC3)cc2)csc1=Nc1ccc(OCC)cc1
    -5%, u

Full records, looked up by structure.
Record of CCCCN1CCCC[C@H]1C(=O)Nc1c(C)cccc1C = PMP22 txn = x; HTT promoter inh = -10%
Record of Cc1cc(NC(=O)c2ccc(Cl)c(Cl)c2)ccc1-c1cc2ccccc2oc1=O = PMP22 txn = u; HTT promoter inh = -2%
Record of O=C(O)Cn1c(-c2cccs2)cc2cc(Cl)ccc21 = PMP22 txn = 4%; HTT promoter inh = 3%

Next section:
Values in the order: PMP22 txn, HTT promoter inh
> Cc1ccc2nc(NC(=O)CSc3nccn3Cc3ccc(F)cc3)sc2c1
    -61%, -16%
> Fc1ccc(-c2cn3cc(Cc4ccccc4)sc3n2)cc1
    -9%, -26%
> CCOC(=O)CCn1nc(-c2ccc(C)cc2)c2ccccc2c1=O
    -22%, -32%
> CCCCCN1C(C(=O)c2ccccc2)=C(NC(=O)c2ccc(C)cc2)c2ccccc2S1(=O)=O
    4%, u
> Cc1cc(N2CCN(C)CC2)nc2ccc(NC(=O)Nc3ccccc3Cl)cc12
    u, u
> COc1ccc(OCc2ccc(-c3nc(C#N)c(N4CCN(C)CC4)o3)o2)cc1
    u, u
> O=S(=O)(c1cccc(Cl)c1)c1nnn2c1nc(NC1CCCC1)c1sccc12
    u, -25%
> COc1cccc(Cn2c(SCc3ccc(C(=O)N4CCC(C)CC4)cc3)nc3ccncc32)c1
    u, u
> CCCOc1ccc(/C=C/C(=O)Nc2sc3c(c2C(=O)OCC)CCC(C)C3)cc1OC (centres undefined)
    -19%, -7%
> Cc1ccc(S(=O)(=O)c2cn(Cc3cccc(F)c3)c3cc(N4CCCC4)c(F)cc3c2=O)cc1
    -2%, -5%
> COc1ccc(CCNS(=O)(=O)c2c(C)nc3sc(C)cn3c2=O)cc1OC
    -9%, -12%
> COC(=O)c1ccc2c(c1)N(CC(=O)Nc1cccc(C(F)(F)F)c1)C(=O)c1ccccc1S2
    -29%, -21%
> O=S(=O)(NCCc1csc2nc(-c3ccc(F)cc3)nn12)c1ccc2c(c1)OCCO2
    u, u
> Cc1ccc(CC(=O)Nc2c(C(=O)N3CCN(c4ccccc4)CC3)oc3ccccc23)cc1
    5%, u
> Cc1ccc(CN2c3ccccc3S(=O)(=O)c3ccccc32)cc1
    -8%, -27%
> O=c1cc(-c2ccccc2)nc(SCc2nc(-c3cccc(C(F)(F)F)c3)no2)[nH]1
    -7%, -1%
> Cc1cc(C)c(/C=C/c2onc(C)c2S(=O)(=O)N2CCC(C(=O)NCC(C)c3ccccc3)CC2)c(C)c1 (centres undefined)
    u, -31%
> CN(C)CCCN=c1c2ccccc2n(C)c2[nH]c(=O)n(C)c(=O)c12
    x, u
> CCN(CC)C(=O)c1ccc2c(c1)N(Cc1ccc(C(F)(F)F)cc1)C(=O)c1ccccc1S2
    2%, -23%
> COc1ccc(Cl)cc1-n1c(CCC(=O)O)ccc1-c1ccc(C)cc1
    8%, 55%[activator]
> CC1=C(C(=O)Nc2ccc(C)cc2)C(c2ccccc2Cl)n2nnnc2N1 (centres undefined)
    3%, -4%
> CCOC(=O)c1c(C)oc2ccc(N(C(=O)c3ccncc3)S(=O)(=O)c3ccc(F)cc3C)cc12
    u, u
> O=C(C=Cc1ccc(O)cc1)c1ccc(O)cc1O
    x, -10%
> O=C(Nc1c2c(nn1-c1ccc(Cl)cc1)CS(=O)(=O)C2)c1cccc(F)c1
    -2%, -24%
> Cc1cc(C)c(NC(=O)CSc2nccn2Cc2ccco2)c(C)c1
    0%, 44%[activator]
> COc1ccc(CC(=O)N2CCc3cc(OC)c(OC)cc3C2COc2ccc(F)cc2)cc1 (centres undefined)
    u, u
> CCOC(=O)Cn1c(=O)oc2cc(S(=O)(=O)NCc3ccc(F)cc3)ccc21
    6%, -17%
> COc1cc(CN2CCN(S(=O)(=O)c3ccc(F)cc3)CC2)cc(OC)c1OC
    u, -21%
> O=C(O)/C=C\C(=O)O
    x, -2%
> CC1=C(C(=O)Nc2ccc(C)cc2C)C(c2ccc[nH]2)n2ncnc2N1 (centres undefined)
    -4%, -13%
> Cc1ccc(C(=O)NCC(c2ccco2)S(=O)(=O)c2ccccc2)cc1C (centres undefined)
    2%, -15%
> O=C(NCc1ccccc1)C(=O)Nc1c2c(nn1-c1ccccc1)CSC2
    u, -25%
> C[C@H]1C[C@H]2[C@@H]3CCC4=CC(=O)C=C[C@]4(C)[C@@]3(Cl)[C@@H](O)C[C@]2(C)[C@@]1(O)C(=O)CO
    x, -9%
> Cc1ccccc1Cn1c(C)c(CNCc2ccccc2)c(C(=O)O)c1C
    -9%, -9%
> O=c1cc(-c2ccccc2)oc2cc(O)c(O)c(O)c12
    x, 22%
> COc1ccc(-c2c(C#N)c(SCC(=O)Nc3ccc(C)c(C)c3)nc(C)c2C(=O)Nc2ccccc2)cc1OC
    8%, -18%
> Cc1cc2n(n1)CCCN2C(=O)Nc1cccc(C)c1C
    4%, -10%
> O=C(c1ccccc1Br)N(Cc1ccco1)Cc1ccco1
    4%, -28%
> Nc1nc(N)c2nc(-c3ccccc3)c(N)nc2n1
    x, 26%
> Cc1nc(-c2ccccc2)sc1CCNC(=O)C(=O)Nc1ccc2c(c1)OCCO2
    u, 4%
> Cc1ccc(S(=O)(=O)c2nnn3c2nc(NCc2ccc(F)cc2)c2sccc23)cc1C
    -18%, u
> COc1ccccc1NC(=O)CSc1oc(-c2cccs2)nc1S(=O)(=O)c1ccccc1
    0%, u
> COc1ccc2c(c1)c1c(c(=O)n(CCc3ccccc3)c(=O)n1Cc1ccccc1)n2C
    u, -10%
> Cc1ccc2c(CC(=O)N3CCN(c4cccc(Cl)c4)CC3)coc2c1C
    -7%, -13%
> CCOC(=O)C1CCCN(C(=O)c2cc3c(=O)n(C)c4ccccc4c3s2)C1 (centres undefined)
    u, u
> CCC(C)(CN(C)C)OC(=O)c1ccccc1 (centres undefined)
    x, 8%
> Cc1cc(C)c(Cn2c(=O)n(CCC(=O)NCCc3ccccc3)c(=O)c3ccccc32)c(C)c1
    2%, -6%
> COc1ccc(CCNC(=O)c2cnn(-c3cccc(C)c3)c2C2CCN(C(=O)OC(C)(C)C)CC2)cc1OC
    -12%, -12%
> O=C(c1cccn1-c1nnc(N2CCCC2)s1)N1CCN(c2ccc(Cl)cc2)CC1
    -8%, -26%
> CC(C)c1nn2c(=O)cc(COC(=O)c3cccc(NC(=O)COc4ccc(F)cc4)c3)nc2s1
    u, u
> COCCNC(=O)c1c(C)oc2nc(C)nc(N3CCOCC3)c12
    -3%, 2%
> CCOC(=O)c1noc2ncn(CC(=O)Nc3ccc(F)cc3Cl)c(=O)c12
    -20%, -5%
> COc1ccc(Cc2nc3ccc(C(=O)NCc4ccccc4Cl)cc3o2)cc1
    -7%, u
> CC(=O)c1cccc(NC(=O)CSc2nnc3ccc(-c4ccc(Cl)cc4)nn23)c1
    6%, -7%
> Cc1ccc(CN2C(=O)N(c3ccc(F)cc3)C(=O)C2CC(=O)Nc2ccc(Cl)cc2)cc1 (centres undefined)
    11%, u
> Cc1c(C(=O)N(Cc2ccco2)Cc2ccccc2Cl)oc2ccc(F)cc12
    u, u
> CC(=O)N1CCC(N(Cc2ccc(C)o2)C(=O)Nc2ccc(C)cc2)CC1
    7%, 3%
> CCc1ccccc1NC(=O)CC(C)n1nc(C)cc1C (centres undefined)
    -1%, 2%
> COc1cccc(-c2nnc3n(Cc4ccc(F)cc4)c(=O)c4ccccc4n23)c1
    -16%, u
> Cc1ccc(CNC(=O)CSc2nc3n[nH]c(C)c3c(=N)n2-c2cccc(C)c2)cc1
    u, -27%

(cont.)
Values in the order: PMP22 txn, HTT promoter inh
> Cc1ccc(-n2ncc(C(=O)NCCc3ccccc3)c2C2CCN(C(=O)OC(C)(C)C)CC2)c(C)c1
    u, u
> Cc1ccc(C(=O)Nc2nc3n(n2)C(c2ccc(F)cc2)C=C(c2ccccc2)N3)cc1 (centres undefined)
    u, u
> Cc1cccc2sc(N(Cc3cccnc3)C(=O)C3COc4ccccc4O3)nc12 (centres undefined)
    9%, 27%
> Fc1ccc2[nH]c(-c3cccs3)cc2c1
    -19%, 8%
> Cc1ccc(NC(=O)CSc2nnc(C)s2)c(C)c1
    -1%, -7%
> CCc1ccccc1NC(=O)Cn1c(=O)n(CCc2ccccc2)c(=O)c2ccccc21
    u, -7%
> CCCCC1(COC(=O)CCC(=O)O)C(=O)N(c2ccccc2)N(c2ccccc2)C1=O
    x, 0%
> Cc1csc2nc(COC(=O)c3ccccc3NC(=O)c3ccc(F)cc3)cc(=O)n12
    -10%, u
> O=C(Cc1ccc(F)cc1)NCc1nc2cccnc2n1Cc1ccc(F)cc1
    -28%, 7%
> COC(=O)c1cc(S(=O)(=O)NCC2CCN(Cc3cccc(F)c3)CC2)cn1C
    -27%, -25%
> CC(Sc1nc2c([nH]c3ccccc32)c(=O)n1-c1ccccc1)c1ccccc1 (centres undefined)
    u, -23%
> COc1ccc(OC)c(NC(=O)CCNS(=O)(=O)c2ccc3c(c2)oc(=O)n3C)c1
    -6%, -6%
> COc1ccc(-n2c(=O)c3ccc(C(=O)NCc4ccc(C)cc4)cc3n(Cc3cccc(Cl)c3)c2=O)cc1
    u, -17%
> COc1cc(-c2nnc(SCCOc3ccccc3)o2)cc(OC)c1OC
    -12%, 1%
> COc1cc(-c2cc3n(C)c(C)c(CCC(=O)NCc4ccccc4)c(=O)n3n2)cc(OC)c1OC
    -2%, 2%
> COc1ccc(S(=O)(=O)Cc2ccc(C(=O)N3CCN(c4cc(C)ccc4C)CC3)o2)cc1
    -29%, -17%
> Cc1cc(O)c2c(O)c3c(O)cccc3cc2c1
    x, -4%
> COc1ccc(CCNC(=O)CSc2ncc3c(n2)-c2cc(Cl)ccc2N(Cc2ccccc2)S3(=O)=O)cc1OC
    u, -18%
> CCOC(=O)C1CCN(CCC(=O)Nc2ccc(Br)c(C)c2)CC1
    u, -6%
> Cc1cccc(N2CCN(C(=O)C3CCN(S(=O)(=O)c4c(C)noc4C)CC3)CC2)c1C
    -7%, 14µM*
> COc1ccc(OC)c(NC(=O)CSc2c3c(nc4cc(Cl)ccc24)CCCC3)c1
    u, 4%

Copied from the list.
PMP22 txn, COC(=O)c1cc(S(=O)(=O)NCC2CCN(Cc3cccc(F)c3)CC2)cn1C → -27%
HTT promoter inh, COc1ccc(OC)c(NC(=O)CCNS(=O)(=O)c2ccc3c(c2)oc(=O)n3C)c1 → -6%
HTT promoter inh, COc1ccc(-n2c(=O)c3ccc(C(=O)NCc4ccc(C)cc4)cc3n(Cc3cccc(Cl)c3)c2=O)cc1 → -17%
